From PubChem
UCH37 inh – human UCH37 deubiquitinating enzyme inhibition; AID 588478; purified proteasome/UCH37, Ub-AMC cleavage fluorescence; Q9Y5K5; 330,000 tested, 0.33% active; inhibition, % (test concentration not listed);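 active = mean of two replicates above 20%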;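 note: 0% = compound-free wells with enzyme and 100% = wells lacking proteasome; stock transfer was 100 nL into about 20 µL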
Target sequence (Q9Y5K5 whole entry, looked up): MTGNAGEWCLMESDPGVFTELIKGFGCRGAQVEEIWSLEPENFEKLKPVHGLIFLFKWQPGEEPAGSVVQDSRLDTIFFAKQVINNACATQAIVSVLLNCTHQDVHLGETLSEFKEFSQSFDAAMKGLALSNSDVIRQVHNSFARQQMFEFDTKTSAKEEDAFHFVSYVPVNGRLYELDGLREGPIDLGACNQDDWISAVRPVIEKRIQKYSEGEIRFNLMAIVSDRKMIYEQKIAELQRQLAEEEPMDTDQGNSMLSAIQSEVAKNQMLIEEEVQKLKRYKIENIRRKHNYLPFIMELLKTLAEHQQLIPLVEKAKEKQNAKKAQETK
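Material: Human UCH37 enzyme supplied as purified proteasome complex | Schedule: 30 min preincubation with enzyme, 25 min cleavage at room temperature | Detection: AMC fluorescence 355/460 nm | Measure: % inhibition of Ub-AMC cleavage fluorescence | Controls: Wells without proteasome as full block, compound-free enzyme plus substrate as uninhibited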
T cruzi inh – blocks replication of Trypanosoma cruzi | AID 1885 | 300,000 tested, 1.4% active | inhibition, % (no concentration beside the values) | T. cruzi beta-gal in NIH3T3, luminescence, 90 h;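 active = mean inhibition across valid replicates above about 55%, limit read from the data; inconclusive = mean below that limit but half or more replicates reach it; inactive = mean below it, under half of replicates reach it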;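 note: signal also drops with host cell toxicity which is not excluded here; 0% = plate median of DMSO wells and 100% = zero luminescence signal; higher percent means less beta-gal luminescence so fewer parasites; stock transfer was 50 nL into about 50 µL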
Beta cell apopt – blocks beta cell apoptosis; protection from apoptosis, % (no concentration beside the values); AID 435005; 300,000 tested, 0.8% active; INS-1E cytokine-induced death, ATP luminescence, 48 h; percent of positive-control rescue, neutral wells zero;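 active = all replicates at 75% or more, or half of them and the mean; inconclusive = half reach 75% but not the mean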;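 note: 0% = cytokine-treated negative control wells and 100% = positive control rescue; higher means more ATP so stronger rescue from cytokine killing; wells of about 40 µL received 100 nL stock; the first replicate is given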
Calb FLC – C. albicans growth modulation with fluconazole; C. albicans CaCi-2 (fluconazole-resistant clinical isolate) + fluconazole, Alamar Blue growth, 48 h; growth inhibition, % (no concentration beside the values); 300,000 tested, 0.57% active;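 active = most replicates above 75%; inconclusive = exactly half above 75%; inactive = most below 75%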;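 note: all wells also contain fluconazole at 8 µg/ml as a sub-toxic cotreatment; 0% = median of DMSO wells and 100% = median of geldanamycin control wells; wells of about 8 µL received 7.5 nL stock; the first replicate is given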
RanGTP-Imp inh – inhibitors of RanGTP-importin-beta interaction, primary screen, biochemical, FRET, CFP-Ran, YFP-importin-beta, homogeneous. cell-free CFP-Ran/YFP-importin-beta FRET ratio. inhibition, % (concentration not given with the values). 300,000 tested, 1.1% active. AID 2216;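 active = most replicates above 15%; inconclusive = exactly half above 15%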;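 note: 0% = DMSO wells and 100% = Ran loaded with GDP instead of GTP; wells of about 40 µL received 100 nL stock; the first replicate is given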
B2AR ag – agonists of human beta-2 adrenergic receptor inducing internalization. Am2.2-beta2AR cells, FAP receptor internalization, flow cytometry; reference of the scale not given here. response, % (test concentration not listed). P07550. 340,000 tested, 0.43% active;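 active = response above a set limit, near 3 SD of response in nonfluorescent compounds, cut at about 42% in these data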;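 note: stock transfer was 100 nL into about 11 µL; a reference agonist was the positive control; negative values mostly stem from fluorescent compounds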
Target sequence (P07550 whole entry, looked up): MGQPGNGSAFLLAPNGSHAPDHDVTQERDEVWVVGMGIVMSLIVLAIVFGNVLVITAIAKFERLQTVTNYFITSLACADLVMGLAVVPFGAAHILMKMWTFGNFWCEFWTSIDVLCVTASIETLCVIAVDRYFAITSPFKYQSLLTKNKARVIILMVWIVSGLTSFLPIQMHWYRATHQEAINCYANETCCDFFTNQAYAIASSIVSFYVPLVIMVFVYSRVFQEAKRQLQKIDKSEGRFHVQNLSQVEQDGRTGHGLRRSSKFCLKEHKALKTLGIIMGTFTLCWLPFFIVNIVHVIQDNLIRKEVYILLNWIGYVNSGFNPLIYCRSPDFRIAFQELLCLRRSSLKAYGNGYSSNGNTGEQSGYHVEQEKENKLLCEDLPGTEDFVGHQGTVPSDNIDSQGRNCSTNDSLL
LANA-H2A inh – blocks KSHV LANA binding to histone H2A/H2B | inhibition, % (test concentration not listed) | cell-free LANA-H2A/H2B peptide, fluorescence polarization | 320,000 tested, 0.6% active | Q9QR71; in the data active = inhibition mostly above about 10%, no sharp cut-off; inactive = mostly below about 6.7%;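 note: stock transfer was 7.5 nL into about 10 µL; 0% = median of vehicle wells and 100% = median of positive control wells; one replicate is shown; the record names a cut of 25% in any replicate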
A1 inh – inhibitors of the anti-apoptotic protein A1, read as caspase activation. MEF A1-2A-BIM cells, Caspase-Glo 3/7 luminescence, 3 h; percent of clofoctol response, vehicle zero. caspase activation, % (concentration not given with the values). 330,000 tested, 0.066% active. AID 2462;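 active = over half of replicate activation scores above 10%, or exactly half above 10 with the replicate mean above 10; inconclusive = replicate mean below 10 yet half the replicates above 10; inactive = over half of replicates below 10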;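 note: wells of about 30 µL received 50 nL stock; many hits fall short of the cut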
* hit, by the source's call; i = inactive; ? = inconclusive; / = no result given.

Under each structure – UCH37 inh, T cruzi inh, Beta cell apopt, Calb FLC, RanGTP-Imp inh, B2AR ag, LANA-H2A inh, A1 inh
O=C(CSc1nc(=O)n2ccccc2n1)Nc1ccc2c(c1)OCCO2
  5.9, 13, 0, 1, 0.2, 1, 1.1, 0.6
CCOC(=O)N1CCN(CC(O)COC2CC(C)CC(C)(C)C2)CC1 (stereo unspecified)
  4.7, -17, -5, -4, 2.3, -3, 0.2, -0.3
COc1ccc(C)c(S(=O)(=O)Nc2ccc(OCC(=O)O)cc2)c1
  -0.1, -2, 1, -13, 2.2, 3, -0.4, 0.0
Cc1cc(C)nc(SCc2cn3cc(Cl)ccc3n2)n1
  1.2, 17, -8, -5, 3.3, 12, -2.1, 0.5
COc1ccc2[nH]c(C(=O)O)c(CCN3C(=O)c4cccc([N+](=O)[O-])c4C3=O)c2c1
  /, -5, 0, -10, -1.6, -11, -0.5, 1.0
COc1ccccc1CNC(=O)COC(=O)c1nc(Cl)ccc1Cl
  1.9, -5, -7, /, 9.9, 8, -5.5, -0.4
O=C(CSc1ncn(-c2ccccc2)n1)Nc1ccc(Br)cn1
  6.2, -1, -6, 6, -0.8, -11, -2.2, -0.4
Cn1c(SCC(=O)n2c3c(c4ccccc42)CCCC3)nnc1-c1ccccc1
  5.6, 15, -2, -6, -3.1, -16, -2.3, -0.5
CCN(CC)CCCN=Cc1c(O)n(-c2ccccc2C)c(=O)c2ccccc12
  3.6, -19, 3, -2, 1.4, -8, -2.5, -0.6
CCNC(=O)NC(=O)CSc1nc2ccccc2n1CC(C)C
  3.2, 8, -4, -1, 2.8, -12, -1.5, 1.1
Cc1cccn2cc(-c3ccc(F)cc3)nc12
  -5.1, -4, /, -11, -9.7, 2, -1.9, -6.9
CC(O)C(O)C(O)C(O)C1NCCS1 (stereo unspecified)
  4.6, 4, -5, 3, 2.1, 0, -3.8, 0.5
CCN(CC)Cc1c(O)ccc2c(=O)c(-c3ccccc3Cl)coc12
  i, -4, -9, 0, 1.6, -3, 0.0, 0.2
O=C(CCC1CCN(Cc2ccccc2Cl)CC1)NC1CC1
  5.8, -19, -5, 5, 4.1, 8, -0.8, -0.2
Cc1ccc(SCC(=O)OCC(=O)NCCc2ccc(S(N)(=O)=O)cc2)c(C)c1
  1.1, /, -5, /, /, 7, 7.0, -1.5
O=C(Cn1ccc2cc(S(=O)(=O)N3CCCCC3)ccc21)NCc1ccccc1F
  1.0, 7, -6, -33, -1.4, -7, 6.1, 0.0
Nc1nnc(CCCCCCCCCCc2nnc(N)s2)s1
  5.4, -7, 5, -3, 4.4, 2, 8.7, 1.4
CCOCCOC(=O)c1ccc(-n2cnc(C)n2)nc1
  -2.7, -21, -2, -8, 1.2, -2, 1.5, -0.1
O=C(O)Cc1ccc(NC(=O)c2cccs2)cc1
  -0.7, -2, -2, -2, 2.6, 6, -2.8, 0.6
CCOCCCNC(=O)CCSc1ccc(C)cc1
  4.7, 3, /, 1, 3.6, 3, -4.3, -0.8
CCc1ccc(NC(=O)COc2ccc(F)cc2C(=O)c2cnn(-c3ccccc3)c2)cc1
  4.0, 11, 2, ?, 0.6, -9, 1.6, 0.9
COc1ccc(/C=C2\SC(=S)N(CCC(=O)Nc3cccc(O)c3)C2=O)cc1
  5.9, 7, /, -3, -1.6, 2, /, /
C=CCSc1nc2ccccc2c2nc(-c3ccccc3)nn12
  5.5, 18, 2, -1, -0.9, 14, -4.8, -0.4
COc1cccc(-c2c(C(=O)N/N=C/c3ccoc3)nnn2-c2nonc2N)c1
  /, 6, 2, -1, 3.4, -10, 0.6, -1.0
CCOC(=O)N1CCN(C(=O)CN(c2cccc(C)c2)S(=O)(=O)c2ccc(C)cc2)CC1
  3.9, 7, 1, -6, 3.6, -1, 2.5, 0.5
O=C(/C=C/c1cccs1)c1cc(Cl)ccc1O
  0.7, 13, -7, -9, 3.8, 3, 3.9, 0.1
OCCCn1c(C2CCCN2c2nc(-c3ccc(Cl)cc3)cs2)nc2cc(C(F)(F)F)ccc21 (stereo unspecified)
  1.9, -14, 0, 13, -0.8, 2, -1.0, 0.7
CCc1cc2c(SCC(=O)c3ccc(C)cc3)ncnc2s1
  1.1, 5, -6, 2, 0.3, -2, 8.5, -1.3
COc1ccc(NC(=O)C(NC(=O)c2ccccc2)C(C)C)cc1 (stereo unspecified)
  4.1, 1, -3, -13, 3.0, 2, -2.5, -1.1
CC1CCN(c2c(NCC3CCC(C(=O)Nc4ccccn4)CC3)c(=O)c2=O)CC1 (stereo unspecified)
  4.3, -8, -1, -8, 2.3, -12, 5.4, -1.2
CCOC(=O)Cc1csc(NC(=O)c2cccc(N3C(=O)CCC3=O)c2)n1
  -0.2, 7, 0, 2, -1.9, 3, -0.6, -0.7
COc1ccccc1NC(=O)c1c(NC(=O)CCC(=O)O)sc2c1CCCCC2
  2.7, -5, 1, 5, -1.6, 3, -0.2, 1.5
COc1ccc(-c2nc3cc(C)ccn3c2NCC2CCCO2)cc1OC (stereo unspecified)
  -10, -11, -8, -3, -21, 11, 4.7, -0.4
CCOC(=O)c1ccc(N/C=C/C(=O)c2ccc(OC)c(OC)c2)cc1
  -14, 1, -1, -9, -2.7, 7, 2.8, -0.8
O=c1cc(-c2ccco2)oc2c1ccc1ccccc12
  /, 14, 0, -4, 2.9, 3, -1.2, -0.2
CCOC(=O)c1c(-c2ccc(C)o2)csc1NC(=O)CSc1nnnn1-c1ccccc1
  3.4, 60*, -2, 31, -0.1, -1, -16, -1.2
Cc1cc(CN2CCCC(C(=O)Nc3ccc(-c4nc5ccccc5[nH]4)cc3)C2)n[nH]1 (stereo unspecified)
  -0.6, 0, -3, -5, -1.7, 10, 0.5, -0.5
COc1ccc(-c2cc(CN3C(=O)c4ccccc4C3=O)on2)cc1
  0.0, -14, -8, 28, 7.1, -3, 5.4, 0.2
Cc1cc(C)n2nc(SCc3cccc(F)c3)nc2n1
  3.3, -1, -2, 2, 5.5, -8, 0.3, 0.5
COc1ccc(CNC(=O)[C@H](CCSC)NC(=O)N2CCn3c2nc2ccccc23)cc1
  3.3, 0, -7, 3, 0.8, -7, 1.5, 0.3

Quoted at random: 3 records from the list
Under each structure – UCH37 inh, T cruzi inh, Beta cell apopt, Calb FLC, RanGTP-Imp inh, B2AR ag, LANA-H2A inh, A1 inh
COc1ccccc1CNC(=O)COC(=O)c1nc(Cl)ccc1Cl
  1.9, -5, -7, /, 9.9, 8, -5.5, -0.4
O=c1cc(-c2ccco2)oc2c1ccc1ccccc12
  /, 14, 0, -4, 2.9, 3, -1.2, -0.2
O=C(CSc1nc(=O)n2ccccc2n1)Nc1ccc2c(c1)OCCO2
  5.9, 13, 0, 1, 0.2, 1, 1.1, 0.6

New compounds follow:
smiles | UCH37 inh | T cruzi inh | Beta cell apopt | Calb FLC | RanGTP-Imp inh | B2AR ag | LANA-H2A inh | A1 inh
O=C(CSCc1ccc([N+](=O)[O-])cc1)NC1CCCCCC1 | 2.9 | 7 | -5 | -20 | 0.4 | -12 | 6.2 | 0.8
COc1ccccc1[N+](=O)[O-] | 2.1 | / | 1 | / | / | -1 | -12 | -0.4
COc1ccccc1Nc1nc(-c2c(C)[nH]c3ccccc23)cs1 | -97 | / | -2 | / | / | -1 | / | -0.6
COc1cc(OC)cc(-n2nnnc2SCC(=O)Nc2ccc(C(C)=O)cc2)c1 | -1.2 | -13 | -9 | -1 | 3.1 | 9 | 1.3 | -0.9
COc1ccc(NC(=O)Cn2nc(Cc3cccnc3)c3ccccc3c2=O)cc1OC | 1.3 | -2 | -7 | 1 | 1.3 | 2 | -0.2 | -0.1
COc1cc(OC)cc(OC(=O)C2CCN(S(=O)(=O)c3ccc(OC)c(OC)c3)CC2)c1 | 4.5 | -4 | / | -7 | 1.9 | 5 | 2.5 | 0.7
COc1ccc(NC(=O)c2cccc(S(=O)(=O)N3CCOCC3)c2)cc1 | 1.7 | -1 | -1 | 4 | 3.5 | -6 | -1.6 | 0.2
NC(=O)CC(NC(=O)Cc1ccc(Br)cc1)c1ccc(NC2CCCC2)c([N+](=O)[O-])c1 (stereo unspecified) | 1.1 | -14 | -5 | 2 | -4.1 | -2 | -0.3 | 0.7
CCOC(=O)C1=C(C)N(CC)C(=S)NC1c1ccc(Cl)cc1 (stereo unspecified) | 1.5 | -23 | -5 | -30 | 4.0 | -24 | -1.9 | 0.5
Nn1c(SCc2ccccc2)nnc1-c1ccco1 | 6.8 | -4 | 0 | -7 | 5.8 | -6 | -5.4 | -0.6
CCCC[n+]1c(-c2ccc(Cl)cc2Cl)csc1Nc1ccccc1 | 3.2 | 2 | -2 | 26 | 1.2 | 11 | -6.2 | -0.3
Cc1cc(C)c2cc(CN(Cc3ccco3)C(=S)NCC3CCCO3)c(=O)[nH]c2c1 (stereo unspecified) | / | 3 | -8 | 6 | 1.8 | -5 | 20* | 0.1
COC(=O)c1ccc(N2CCN(C)CC2)c(NC(=O)c2ccc(Br)o2)c1 | 5.3 | 36 | 4 | -6 | -0.5 | -8 | -5.4 | -0.9
CC(=O)c1cccc(N(CC(=O)NCCc2ccccc2)C(=O)c2csnn2)c1 | 1.5 | -14 | 1 | 3 | -1.3 | -3 | 0.8 | 0.0
CC(OC(=O)c1ccc(O)cc1)C(=O)Nc1cc(C(F)(F)F)ccc1Cl (stereo unspecified) | 0.3 | -1 | -7 | 18 | -1.6 | 4 | 1.4 | 0.4
C/C(=N\Nc1ccc(S(=O)(=O)N2CCCCC2)cn1)c1cccc(Br)c1 | / | / | 15 | / | / | 15 | -0.4 | -0.8
